# SARS PLP yeast = blocks SARS-CoV papain-like protease in a yeast assay. S. cerevisiae expressing SARS-CoV PLpro, growth rescue; control for the full effect not named in the record. Potency, µM (doses to about 32.9 µM), for inactives: at the highest dose activity, positive = growth rescue. 330,000 tested, 0.19% active; active means well fitted rising curve with a large enough effect; inconclusive means small, poorly fitted or top-dose-only effect; inactive means no such curve, though single readings can be large or run the other way; also: 0% is about no effect; nearly all actives have a fitted effect of over 55% in size; growth read by luminescence after 48 h
# Cruzain noTriton = blocks cruzain activity in detergent-free assay; 200,000 tested, 2.3% active; AID 1476; Potency, µM, for the others: max response, negative = inhibition, hits mostly inhibitors; purified cruzain, Z-FR-AMC fluorescence, no detergent; P25779;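 also: plate controls were enzyme without inhibitor for no effect and buffer without enzyme for full effect; nearly all actives have a fitted effect of over 40% in size; top concentration of the series not given in the record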
# Target sequence (P25779 123-467 limits assumed): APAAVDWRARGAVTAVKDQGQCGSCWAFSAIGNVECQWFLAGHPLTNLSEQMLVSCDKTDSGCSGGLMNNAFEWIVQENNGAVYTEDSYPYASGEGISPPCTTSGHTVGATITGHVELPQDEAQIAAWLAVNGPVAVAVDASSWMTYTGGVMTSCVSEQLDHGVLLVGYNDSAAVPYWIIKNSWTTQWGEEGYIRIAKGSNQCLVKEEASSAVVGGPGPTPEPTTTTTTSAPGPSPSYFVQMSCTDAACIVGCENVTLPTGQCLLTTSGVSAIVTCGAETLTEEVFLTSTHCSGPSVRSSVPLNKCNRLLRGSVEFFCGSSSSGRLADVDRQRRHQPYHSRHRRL
#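 Detergent-free condition (0.00005% Triton X-100) in acetate buffer pH 5.5 with DTT. 1.5 nM enzyme and compound were pre-mixed 15 min, then 2 uM Z-FR-AMC substrate added; reaction progress from fluorescence change between first and third reads (60 s).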
# Marburg entry inh = blocks Marburg virus binding to or entry into cells; 300,000 tested, 1.8% active; Potency, µM (top dose mostly 37.8 µM), without a hit: at the top dose activity change, negative = inhibition, most hits filed as inhibitors; Marburg virus pseudotyped entry inhibition, cell reporter; control for the full effect not named in the record; about a third of the inactives were read at about 46 µM; AID 540276; active = well fitted inhibition curve with a large enough effect; inconclusive = small, poorly fitted or top-dose-only effect, or effect the other way; inactive = flat fitted curve, though single readings scatter; tested in HEK293 cells; about a fifth of its hits are not listed in these tables; also: % is scaled to controls: 0 for no effect and ±100 for the full control effect; luciferase read-out
# RE007 growth inh = less growth of the S. pombe RE007 Vpr strain; S. pombe RE007 Vpr strain, BacTiter-Glo ATP luminescence, 24 h; control for the full effect not named in the record; Potency, µM (series often up to 92.2 µM), for the others: top-dose activity change, negative = less growth; 360,000 tested, 0.21% active; active = well fitted falling curve with a large enough effect; inconclusive = small, poorly fitted or top-dose-only effect; inactive = no such curve, though single readings can be large or run the other way;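 also: % is scaled to controls: 0 for no effect and ±100 for the full control effect; nearly all actives have a fitted effect of over 50% in size; the assay follows cell death caused by Vpr and the record does not say whether a fall means rescue or toxicity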
#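 Fission yeast RE007 carrying one integrated HIV-1 vpr copy, seeded at OD 0.01 in PMG+AL medium with 23 nL pinned compound. Grown 24 h at 30 degrees; viability read by BacTiter-Glo luminescence after 5 min.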
# Cruzain Triton = blocks cruzain activity in presence of Triton detergent | 200,000 tested, 0.43% active | Potency, µM, without a hit: max response, negative = inhibition, actives largely listed as inhibitors | purified cruzain, Z-FR-AMC fluorescence, 0.01% Triton;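 also: plate controls were neutral wells for no effect and buffer without enzyme for full effect; nearly all actives have a fitted effect of over 40% in size; top concentration of the series not given in the record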
#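 Steps: dispense cruzain (1.5 nM final) in acetate buffer pH 5.5 with DTT and 0.01% Triton X-100; pin-transfer compounds; incubate 15 min RT; add Z-FR-AMC (2 uM final); read fluorescence every 30 s, using the 60 s intensity change.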
# LASV entry inh = Lassa virus entry inhibition | Potency, µM (series often up to 37.9 µM), for the others: top-dose activity change, negative = inhibition, most hits filed as inhibitors | 300,000 tested, 1.2% active | Lassa virus pseudotype entry inhibition, cell reporter; control for the full effect not named in the record; active means well fitted inhibition curve with a large enough effect; inconclusive means small, poorly fitted or top-dose-only effect, or effect the other way; inactive means flat fitted curve, though single readings scatter; tested in HEK293 cells; also: % is scaled to controls: 0 for no effect and ±100 for the full control effect; nearly all actives have a fitted effect of over 50% in size; luciferase read-out
# NS1 function inh = inhibitors of influenza NS1 protein function | S. cerevisiae slowed by influenza A NS1, growth recovery by OD600 | Potency, µM (doses to about 46.1 µM), for inactives: top-dose activity, positive = more growth | 270,000 tested, 0.4% active; active means well fitted rising curve with a large enough effect; inconclusive means small, poorly fitted or top-dose-only effect; inactive means no such curve, though single readings can be large or run the other way; also: nearly all actives have a fitted effect of over 50% in size
#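 A cell-based growth assay was used: compounds that relieve NS1-induced slow growth of budding yeast raise OD600. Assay medium was yeast nitrogen base with ammonium sulphate and -URA supplement, pH 6.0, with 2% galactose.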
# StopGo reporter = FMDV 2A StopGo reporter, luciferase signal. human cells with a luciferase reporter of 2A StopGo recoding; control for the full effect not named in the record. Potency, µM (series often up to 57.9 µM), inactives show top-dose signal change, negative = less light. 410,000 tested, 1.2% active. AID 1159524; active = well fitted falling curve with a large enough effect; inconclusive = small, poorly fitted or top-dose-only effect; inactive = no such curve, though single readings can be large or run the other way; tested in HEK293T cells; also: % is scaled to controls: 0 for no effect and ±100 for the full control effect; nearly all actives have a fitted effect of over 45% in size; luciferase light after 4 h
# Active calls of the source: *; ? = inconclusive; · = no result given; [ ] = remark or other dose. Unless noted, calls follow the shape of the dose curve; as a rule, active = well fitted curve in the direction sought with a large enough effect; inconclusive = small, poorly fitted or top-dose-only effect, or another doubt; inactive = no such curve, though single readings can be large; an effect the other way counts as inactive or inconclusive. Potency is read from the fitted curve at half-maximal effect. Hits appear at their usual frequency; 4.7% or so of the library scored in one or more.
entry	Compound	SARS PLP yeast	Cruzain noTriton	Marburg entry inh	RE007 growth inh	Cruzain Triton	LASV entry inh	NS1 function inh	StopGo reporter
1	O=C(Nc1ccc(N2CCOCC2)cc1N1CCOCC1)c1ccco1	-1.6%	0.8%	-25.4%[46.1 µM]	7.4%	-4.2%	2.0%	-2.1%	-4.7%
2	Cc1ccccc1NC(=O)c1ccc(CSc2ncccn2)cc1	2.3%	1.0%	-0.2%	-11.1%	-1.8%	-0.3%	7.5%	17.6%
3	O=C(O)C1CC=C(Cl)CC1C(=O)NCc1ccccc1 (centres undefined)	6.7%	5.2%	-2.5%	11.1%	4.5%	2.0%	-0.8%	0.3%
4	CCN(C(=S)Nc1ccc(OC(F)F)cc1)C1CCCCC1	4.0%	·	-0.1%[46.1 µM]	-13.1%	·	2.1%	·	45.2%[activator]
5	O=C(O)c1cc(Cl)ccc1NC(=O)C1CCCO1 (centres undefined)	4.9%	5.9%	?	-4.3%	3.8%	1.0%	0.8%	·
6	CCOC(=O)c1c(Nc2cc(C)cc(C)c2)nnc(-c2ccccc2)c1-c1ccccc1	·	?	?	·	-8.4%	?	·	-22.3%
7	O=C(Nc1nc2ccc(Cl)cc2s1)c1ccc(Br)o1	0.0%	20µM*	?	-12.7%	0.4%	?	9.3%	22.0%
8	CNc1sc(C(=O)c2ccc(F)cc2)c(N)c1-c1nc2ccccc2s1	-0.1%	6.2%	-20.8%	?	-1.1%	-0.3%	-45.8%	39.3%[activator]
9	O=C(N1CCN(c2ccccc2)CC1)C1(S(=O)(=O)c2ccc(Cl)cc2)CC1	-5.0%	·	-11.7%[46.1 µM]	8.4%	·	-11.7%[46.1 µM]	-19.4%	-12.6%
10	Cc1sc2nc(CSCC(=O)Nc3ccc(N4CCOCC4)cc3)[nH]c(=O)c2c1C	0.1%	·	·	-3.0%	·	·	16.2%	-21.3%
11	O=C(COc1cccc(C(F)(F)F)c1)Nc1ccc2[nH]ncc2c1	0.7%	·	·	6.7%	·	·	9.0%	0.4%
12	COc1cc2c(cc1OC)CN(C(=O)CSc1nc(C)cc(C)c1C#N)CC2	10.8%	-12.6%	?	-0.8%	-3.7%	-18.2%	9.4%	-4.7%
13	COc1ccc(C2(CNC(=O)/C=C/c3ccco3)CCCC2)cc1OC	3.3%	?	5.2%	-0.2%	-7.5%	-16.2%	-5.6%	-18.3%
14	CCOc1ccccc1Nc1ccnc2cc(Cl)ccc12	-1.3%	·	?	?	·	10µM*	-4.7%	-26.1%
15	C=CCN1C(=O)c2ccc(C(=O)N(CC)CC(=O)Nc3cc(Cl)ccc3C)cc2C1=O	6.3%	·	-4.3%	26.2%	·	0.3%[46.1 µM]	·	-20.7%
16	COc1ccc(OCC(=O)NNC(=S)NC(=O)c2ccc(Br)o2)cc1	-3.2%	·	9.3%	11.5%	·	1.8%	-6.3%	-12.7%
17	CCc1ccc(C(=O)Nc2ccc3c(c2)n(C)c(=O)n3C)cc1	4.4%	·	15.3%	2.3%	·	-1.0%	-6.1%	76.2%[activator]
18	COc1ccc(NC(=O)NNC(=O)COc2ccc(Cl)cc2C)cc1OC	-1.9%	·	2.1%	-2.7%	·	-0.8%	-8.2%	-9.1%
19	CCN(CC(=O)Nc1c(F)cccc1F)C(=O)CC1CCCC1	7.6%	·	-4.2%[46.1 µM]	0.2%	·	19.8%	·	-9.3%
20	CCOc1ccc(N2C(=O)CC(Sc3nc(C)cc(C)c3C#N)C2=O)cc1 (centres undefined)	2.1%	-1.4%	20.2%	-5.3%	2.6%	23.0%	12.6µM*	·

# 6 entries from above, with two lines to a compound.
# Values in the order: SARS PLP yeast	Cruzain noTriton	Marburg entry inh	RE007 growth inh	Cruzain Triton	LASV entry inh	NS1 function inh	StopGo reporter
7) O=C(Nc1nc2ccc(Cl)cc2s1)c1ccc(Br)o1
  0.0%	20µM*	?	-12.7%	0.4%	?	9.3%	22.0%
15) C=CCN1C(=O)c2ccc(C(=O)N(CC)CC(=O)Nc3cc(Cl)ccc3C)cc2C1=O
  6.3%	·	-4.3%	26.2%	·	0.3%[46.1 µM]	·	-20.7%
5) O=C(O)c1cc(Cl)ccc1NC(=O)C1CCCO1 (centres undefined)
  4.9%	5.9%	?	-4.3%	3.8%	1.0%	0.8%	·
10) Cc1sc2nc(CSCC(=O)Nc3ccc(N4CCOCC4)cc3)[nH]c(=O)c2c1C
  0.1%	·	·	-3.0%	·	·	16.2%	-21.3%
4) CCN(C(=S)Nc1ccc(OC(F)F)cc1)C1CCCCC1
  4.0%	·	-0.1%[46.1 µM]	-13.1%	·	2.1%	·	45.2%[activator]
3) O=C(O)C1CC=C(Cl)CC1C(=O)NCc1ccccc1 (centres undefined)
  6.7%	5.2%	-2.5%	11.1%	4.5%	2.0%	-0.8%	0.3%

# The results go on.
entry	Compound	SARS PLP yeast	Cruzain noTriton	Marburg entry inh	RE007 growth inh	Cruzain Triton	LASV entry inh	NS1 function inh	StopGo reporter
21	FC(F)(F)c1cccc(Cc2noc(CN3CCSCC3)n2)c1	1.3%	·	-11.8%[46.1 µM]	-12.5%	·	-4.5%[46.1 µM]	3.3%	-6.7%
22	O=C(CCN1C(=O)c2ccccc2C1=O)NCCN1CCOCC1	3.0%	-1.1%	9.4%	-6.3%	0.0%	-3.9%	2.3%	7.0%
23	COc1cc(Cl)c(C)cc1NC(=O)C1CCN(c2nc3ccccc3n3cccc23)CC1	·	?	·	·	-7.5%	-28.0%[46.1 µM]	·	0.0%
24	Cc1oncc1C(=O)Nc1ccc2ccccc2c1	-6.8%	·	·	-20.0%	·	·	-32.3%	29.2%
25	O=C(c1ccccc1)n1c(=O)c(F)cn(COCCBr)c1=O	-14.9%	·	·	?	·	·	-13.2%	-8.9%
26	O=C(NCCN1CCOCC1)c1cc2c(=O)n3ccccc3nc2n1Cc1ccccc1	-0.9%	?	-1.3%	-19.5%	?	-12.3%	6.7%	2.3%
27	CN(CC(=O)Nc1ccc(Cl)cc1)C(=O)Cn1[nH]c(=O)c2ccccc2c1=O	5.1%	·	·	2.5%	·	-3.5%	·	-12.2%
28	CC(C)(C)C1CCc2onc(C(=O)NC3CCCC3)c2C1 (centres undefined)	3.7%	1.1%	?	20.4%	-1.4%	?	-60.4%	-14.5%
29	O=C(Nc1cccc([N+](=O)[O-])c1)C1C2CCCCC21 (centres undefined)	5.4%	·	·	-4.0%	·	·	4.4%	20.8%
30	CCOc1ccc(S(=O)(=O)NCCC(=O)NCCCSc2ccccc2)cc1	-5.6%	·	24.3%	6.7%	·	12.0%	·	-21.4%
31	CC(C)(C)c1ccc(C(=O)Nc2cccnc2)cc1	-20.3%	·	·	-15.6%	·	·	-42.5%	7.1%
32	CC1CCN(C(=O)C(=O)c2cn(CC(=O)N3CCCC3)c3ccccc23)CC1	?	·	-8.0%[46.1 µM]	4.2%	·	-4.6%[46.1 µM]	6.9%	9.5%
33	O=C(CSc1nc2c(oc3ccccc32)c(=O)n1-c1ccccc1F)Nc1ccccc1	·	-25.2%	?	·	-1.3%	·	·	-12.8%
34	Cc1cc(C)nc(NNC2=CC(=O)CC(C)(C)C2)n1	-1.1%	·	?	-19.2%	·	-6.6%[46.1 µM]	·	1.7%
35	Cc1nccn1Cc1ccccc1	7.5%	·	·	7.1%	·	·	7.0%	0.0%
36	CC(=O)Nc1ccc(S(=O)(=O)N(C)CC(=O)OCC(=O)N2CCc3ccccc32)cc1	-6.9%	9.8%	0.6%	-0.9%	6.5%	3.5%	4.5%	6.2%

# Arranged by SMILES length (high to low): part of the list above
entry	Compound	SARS PLP yeast	Cruzain noTriton	Marburg entry inh	RE007 growth inh	Cruzain Triton	LASV entry inh	NS1 function inh	StopGo reporter
29	O=C(Nc1cccc([N+](=O)[O-])c1)C1C2CCCCC21 (centres undefined)	5.4%	·	·	-4.0%	·	·	4.4%	20.8%
22	O=C(CCN1C(=O)c2ccccc2C1=O)NCCN1CCOCC1	3.0%	-1.1%	9.4%	-6.3%	0.0%	-3.9%	2.3%	7.0%
24	Cc1oncc1C(=O)Nc1ccc2ccccc2c1	-6.8%	·	·	-20.0%	·	·	-32.3%	29.2%
